Vaccinia Venus – inhibitors of vaccinia virus (Venus reporter); Vaccinia virus Venus reporter expression, fluorescence; actives 0.46% (n = 330,000); Potency, µM (top dose mostly 36.5 µM), for inactives: at the highest dose activity change, negative = inhibition, hits mostly inhibitors; active means well fitted inhibition curve with a large enough effect; inconclusive means small, poorly fitted or top-dose-only effect; inactive means no such curve, though single readings can be large or run the other way; tested in A549 cells; note: nearly all actives have a fitted effect of over 30% in size; inactives centre near -10
Vaccinia mCherry – vaccinia inhibition (mCherry reporter). Vaccinia virus mCherry reporter infection, fluorescence; about a quarter of the inactives have no number. Potency, µM (highest dose often 36.5 µM), for the others: at the highest dose activity change, negative = inhibition, most hits filed as inhibitors. actives 0.63% (n = 310,000); active = well fitted inhibition curve with a large enough effect; inconclusive = small, poorly fitted or top-dose-only effect; inactive = no such curve, though single readings can be large or run the other way; tested in A549 cells; note: nearly all actives have a fitted effect of over 35% in size; inactives centre near -10
Numbers without * were called inactive; & = joins results of further samples; [ ] = another dose, or the depositor's remark. % is set by controls: 0 for no effect and ±100 for the full control effect; potency is the fitted concentration of half-maximal effect.

What do the screens show for `Cc1cc(NC(=O)c2c(-c3c(Cl)cccc3Cl)noc2C)n(C)n1`?
Vaccinia Venus: -6%[7.34 µM]; Vaccinia mCherry: -1%[7.34 µM]

Results for COc1ccc(NC(=O)CN(C)C(=O)c2ccc3[nH]c4c(c3c2)CC(C)CC4)cc1 (stereo not given) ?
Vaccinia Venus: -26%; Vaccinia mCherry: inconclusive

How did CCCN1CCN(C(=O)c2ccccc2-c2nc3ccccc3s2)CC1 do in these assays?
Vaccinia Venus: -8%; Vaccinia mCherry: -18%

Results for O=C(O)COCC(=O)Nc1ccc(-n2nc(C(F)(F)F)cc2-c2cccs2)cc1 ?
Vaccinia Venus: -2%; Vaccinia mCherry: inactive

How did O=[N+]([O-])c1ccc(O)c(CNCc2ccccc2)c1 do in these assays?
Vaccinia Venus: -5%; Vaccinia mCherry: -7%

Results for CCC(C)c1ccc(NC(=S)NCCn2cc(Cl)cn2)cc1 (stereo not given) ?
Vaccinia Venus: -16%; Vaccinia mCherry: -5%

What do the screens show for `COCCCNC(=O)COC(=O)c1ccc(-c2nc3ccccc3s2)s1`?
Vaccinia Venus: -9%; Vaccinia mCherry: -26%

How did Cc1cc(C)nc(Nc2ccc(C(=O)O)cc2)n1 do in these assays?
Vaccinia Venus: -6%; Vaccinia mCherry: -17%

Results for CC(C)Cn1c(SCC(=O)NC(=O)NC2CCCC2)nc2ccccc21 ?
Vaccinia Venus: -21%; Vaccinia mCherry: inconclusive

Results for CCN1CCN(c2ccc(S(=O)(=O)N3CCOCC3)cc2NC(=O)c2sccc2C)CC1 ?
Vaccinia Venus: -17%; Vaccinia mCherry: -8%

How did Brc1ccccc1/C=N/N1CCCCC1 do in these assays?
Vaccinia Venus: -22%; Vaccinia mCherry: -15%

What do the screens show for `COC(=O)c1c(-c2ccc(F)cc2)csc1NC(=O)C1CCCO1` (stereo not given)?
Vaccinia Venus: -6%; Vaccinia mCherry: inactive

Results for CS(=O)(=O)Nc1cccc(NC(=O)c2ccc(-n3ccnc3)c3ccoc23)c1 ?
Vaccinia Venus: -1%; Vaccinia mCherry: 1%

How did COc1ccc2cc1Oc1ccc(cc1)C[C@H]1c3c(cc4c(c3Oc3cc5c(cc3OC)CCN(C)[C@@H]5C2)OCO4)CCN1C do in these assays?
Vaccinia Venus: -25%&-13%; Vaccinia mCherry: -16%&-28%

How did CCOC(=O)C1=C(CC)Nc2ccccc2N/C1=N\S(=O)(=O)c1cc(Br)ccc1Br do in these assays?
Vaccinia Venus: -21%; Vaccinia mCherry: -25%

Results for COc1ccc(-c2nn(-c3ccccc3)cc2/C=N/Nc2ccccn2)cc1OC ?
Vaccinia Venus: 14µM*; Vaccinia mCherry: inconclusive

What do the screens show for `COC(=O)[C@]1(C)N[C@H](CN(C)C(=O)Nc2ccc(Cl)cc2)[C@@H]2C(=O)N(Cc3ccccc3)C(=O)[C@@H]21`?
Vaccinia Venus: -16%; Vaccinia mCherry: -6%

What do the screens show for `O=C(c1ccc(C(F)(F)F)cc1)C1CCCN(C(=O)Cn2cncn2)C1` (stereo not given)?
Vaccinia Venus: -7%; Vaccinia mCherry: -2%

How did NC(=O)C1(N2CCCCC2)CCN(S(=O)(=O)c2cc(Cl)sc2Cl)CC1 do in these assays?
Vaccinia Venus: 4%; Vaccinia mCherry: inactive

How did CCCc1nnc(NC(=O)C2CCN(C(=O)c3ccco3)CC2)s1 do in these assays?
Vaccinia Venus: -13%; Vaccinia mCherry: -17%

Results for CCOC(=O)N1CCN(CC(O)COCCC23CC4CC(CC(C4)C2)C3)CC1 (stereo not given) ?
Vaccinia Venus: -3%

How did CC(=O)Nc1ccc(S(=O)(=O)N=S(C)(C)=O)cc1 do in these assays?
Vaccinia Venus: -11%; Vaccinia mCherry: -15%

Results for CCOc1ccc(OCC)c(NC(=O)CCc2c(C)nc3c(c2C)c(=O)n(C)c(=O)n3C)c1 ?
Vaccinia Venus: 5%; Vaccinia mCherry: -1%

Results for COc1ccc(CCn2c(=O)c3cccnc3n(CC(=O)Nc3c(C)cccc3C)c2=O)cc1OC ?
Vaccinia Venus: -2%; Vaccinia mCherry: -13%

Results for Cc1cccc(NC(=O)c2cccs2)n1 ?
Vaccinia Venus: -8%

Results for CCc1nc(Nc2ccc(OC)c(OC)c2)c2nnn(Cc3ccccc3Cl)c2n1 ?
Vaccinia Venus: inconclusive

How did Cc1nc2cc(N3CCN(C)CC3)c(NC(=O)Cc3ccccc3)cc2c(=O)n1Cc1ccccc1 do in these assays?
Vaccinia Venus: -15%; Vaccinia mCherry: -19%

Results for COc1ccc(/C(O)=C2\C(=O)C(=O)N(Cc3ccco3)C2c2ccc(OC)cc2OC)cc1 (stereo not given) ?
Vaccinia Venus: -6%; Vaccinia mCherry: -14%

How did CCC(C)NC(=O)COC(=O)c1csc2c1CCCC2 (stereo not given) do in these assays?
Vaccinia Venus: -9%; Vaccinia mCherry: -12%

What do the screens show for `Cc1ccc(S(=O)(=O)c2cccc(S(=O)(=O)N3CCOCC3)c2)cc1S(=O)(=O)N1CCOCC1`?
Vaccinia Venus: -3%; Vaccinia mCherry: -11%

Results for CCCNC(=O)CSc1cn(CC(=O)N2CCCCCC2)c2ccccc12 ?
Vaccinia Venus: -8%; Vaccinia mCherry: -4%

Results for O=C(NCC(c1ccc2c(c1)OCO2)N1CCOCC1)C(=O)Nc1ccc(Cl)cc1 (stereo not given) ?
Vaccinia Venus: -13%; Vaccinia mCherry: -9%

Results for CC1CCCC(NC(=O)/C=C/c2c(F)cccc2Cl)C1C (stereo not given) ?
Vaccinia Venus: -17%; Vaccinia mCherry: inactive

What do the screens show for `C/C(=N\NC(=O)c1cccnc1)c1cc(C)oc1C`?
Vaccinia Venus: -15%; Vaccinia mCherry: -6%

Results for COc1ccc(C2=NS(=O)(=O)N(C)C(C(=O)NCc3ccccc3)=C2)cc1OC ?
Vaccinia Venus: -4%&-2%; Vaccinia mCherry: -7%

What do the screens show for `O=S1(=O)c2ccccc2C(O)(c2ccccc2)c2ccccc21`?
Vaccinia Venus: -1%; Vaccinia mCherry: -11%

What do the screens show for `Cc1ccc(OCC(=O)Nc2ccc(S(=O)(=O)N3CCOCC3)cc2)c(Br)c1`?
Vaccinia Venus: inconclusive; Vaccinia mCherry: inconclusive

What do the screens show for `CCOc1cc(/C=N/n2c(C)nc3ccccc3c2=O)ccc1O`?
Vaccinia Venus: -3%; Vaccinia mCherry: 2%

How did CCCCNC(=O)[C@]1(C)CCC[C@@]2(C)C3CC[C@@]4(C)C[C@]3(CCC21)CC4=O (stereo not given in full) do in these assays?
Vaccinia Venus: -8%; Vaccinia mCherry: inactive

Results for N#CC1C(=O)Nc2cccnc21 (stereo not given) ?
Vaccinia Venus: 0%; Vaccinia mCherry: inactive

How did COc1cccc(C(=O)OCC(=O)NCCNC(=O)COC(=O)c2cccc(OC)c2OC)c1OC do in these assays?
Vaccinia Venus: -12%; Vaccinia mCherry: -1%

How did CCCN(CCC)CCCNC(=O)Cn1ncc2c3ccccc3n(Cc3ccc(F)cc3)c2c1=O do in these assays?
Vaccinia Venus: -24%; Vaccinia mCherry: -24%

What do the screens show for `CC(C)c1csc2nc3n(c(=O)c12)CCCCC3`?
Vaccinia Venus: -20%; Vaccinia mCherry: inactive

Results for Cc1ccc(NC(=O)CCN2CCC(C(N)=O)CC2)cc1 ?
Vaccinia Venus: 1%; Vaccinia mCherry: inactive

What do the screens show for `CC(C)CNC(=O)c1ccccc1NC(=O)Nc1ccccc1`?
Vaccinia Venus: -12%; Vaccinia mCherry: -4%

Results for COCCn1c(C)cc(O)c(C(c2ccc(F)cc2)N2CCN(c3ccccc3)CC2)c1=O (stereo not given) ?
Vaccinia Venus: -2%; Vaccinia mCherry: -7%

How did O=C(CCl)Nc1cc(SCC(O)CO)cc([N+](=O)[O-])c1 (stereo not given) do in these assays?
Vaccinia Venus: 4µM*; Vaccinia mCherry: 2.8µM*

Results for Cc1ccccc1C(=O)NCc1nnc(SCC(=O)N2c3ccccc3Sc3ccccc32)n1C ?
Vaccinia Venus: inconclusive; Vaccinia mCherry: inconclusive

How did FC(F)(F)C(F)(F)C(F)(F)c1nc2nc(Cl)c(Cl)nc2[nH]1 do in these assays?
Vaccinia Venus: -2%; Vaccinia mCherry: -9%

What do the screens show for `O=C1CSC2(C(=O)N(Cc3ccccc3)c3ccccc32)N1c1ccc(Cl)cc1` (stereo not given)?
Vaccinia Venus: -26%; Vaccinia mCherry: -23%

How did CCCCC1=CC2=CC(=O)C(C)(OC(=O)CC)C(=O)C2=CN1CCOC (stereo not given) do in these assays?
Vaccinia Venus: 1%; Vaccinia mCherry: -6%

Results for C=CCN1C(=O)NC(=O)/C(=C/c2cc3c4c(c2)CCCN4CCC3)C1=O ?
Vaccinia Venus: 1%; Vaccinia mCherry: -6%

How did CCc1ccc(S(=O)(=O)NCc2cccs2)cc1 do in these assays?
Vaccinia Venus: -11%; Vaccinia mCherry: inactive

Results for Cc1ccc(C(=O)OCC(=O)NC2CCCCCCC2)cc1C ?
Vaccinia Venus: -9%; Vaccinia mCherry: inactive

How did CC(=O)N1C(=O)C2(C(C#N)=C(N)Oc3n[nH]c(-c4ccccn4)c32)c2ccccc21 (stereo not given) do in these assays?
Vaccinia Venus: -27%; Vaccinia mCherry: inconclusive

Results for O=C(COc1ccc(Cl)cc1)Nc1c(-c2cccs2)nc2ccccn12 ?
Vaccinia Venus: -1%; Vaccinia mCherry: -8%

Results for Cc1cccc(C(=O)OCC(=O)c2c(N)n(CC(C)C)c(=O)n(C)c2=O)c1O ?
Vaccinia Venus: -9%; Vaccinia mCherry: -15%

How did CCCCn1nnnc1C(c1cc2ccccc2o1)N(C)Cc1ccccc1 (stereo not given) do in these assays?
Vaccinia Venus: 3%; Vaccinia mCherry: -6%

How did CCCN1C(=O)C(Cc2nc3ccccc3c(=O)n2C)c2ccccc21 (stereo not given) do in these assays?
Vaccinia Venus: 0%; Vaccinia mCherry: -16%

How did C=CCN(c1ccccc1C(=O)O)S(=O)(=O)c1ccc(C)cc1 do in these assays?
Vaccinia Venus: 3%; Vaccinia mCherry: 3%

Results for CCOc1ccc(-n2ccnc2SCC(=O)NCc2ccc3c(c2)OCO3)cc1 ?
Vaccinia Venus: inconclusive

How did COCOCCn1cc(CN2CCS(=O)(=O)N(Cc3ccc(-c4cccc(CO)c4)cc3)C(C(C)C)C2=O)nn1 (stereo not given) do in these assays?
Vaccinia Venus: -6%; Vaccinia mCherry: inactive

What do the screens show for `CCCCCC1CCC(c2nnc(SCC(C)=O)o2)CC1` (stereo not given)?
Vaccinia Venus: -6%; Vaccinia mCherry: inactive

How did Nc1nc2c(s1)CC(c1ccccc1)CC2 (stereo not given) do in these assays?
Vaccinia Venus: -29%; Vaccinia mCherry: inconclusive

What do the screens show for `CC(C)CCCC(C)C1CCC2C3CC[C@H]4CC(=O)CC[C@@]4(C)C3CC[C@@]12C` (stereo not given in full)?
Vaccinia Venus: 0%; Vaccinia mCherry: inactive

What do the screens show for `O=C(Nc1cccc(Cl)c1)c1cc(S(=O)(=O)N2CCOCC2)cs1`?
Vaccinia Venus: -19%; Vaccinia mCherry: -10%

How did COC(=O)CSc1ncnc2c1sc1nc(N3CCOCC3)c3c(c12)CCCC3 do in these assays?
Vaccinia Venus: -12%; Vaccinia mCherry: -17%

How did O=c1cc(N2CCc3ccccc32)[nH]c(=O)n1-c1ccccc1Cl do in these assays?
Vaccinia Venus: -14%; Vaccinia mCherry: inactive

Results for CCC(=O)Nc1c(C(=O)N2CCN(c3ccc(F)cc3)CC2)oc2ccccc12 ?
Vaccinia Venus: -5%; Vaccinia mCherry: -5%

Results for COC(=O)NC1CSCC1OC(=O)CCN1C(=O)c2ccccc2C1=O (stereo not given) ?
Vaccinia Venus: 7%; Vaccinia mCherry: -16%

What do the screens show for `O=C(Nc1cccc(Cl)c1)Nc1nnc(-c2ccccc2)o1`?
Vaccinia Venus: 18%; Vaccinia mCherry: 11%

Results for CCN(C(=O)Cc1c(C(=O)O)n(C)c2ccccc12)c1cc(OC)ccc1OC ?
Vaccinia Venus: -12%; Vaccinia mCherry: -21%

How did O=C(Cn1cc(S(=O)(=O)N2CCCC2)c(S(=O)(=O)N2CCCC2)c1)Nc1ccc(F)cc1 do in these assays?
Vaccinia Venus: 9%; Vaccinia mCherry: -3%

Results for CN(CC(=O)Nc1cccc(F)c1)C(=O)c1cc(-c2ccccc2)nc2ccccc12 ?
Vaccinia Venus: inconclusive; Vaccinia mCherry: -26%
